Env fusion inh: blocks HIV Env-driven cell-cell fusion. HeLa-JRFL Env/CEM21 cell fusion, luciferase. inhibition, % at 12.3 µM. actives 1.1% (n = 360,000). AID 651610;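 active = mean replicate inhibition score of at least 50 and every replicate individually at or above 50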;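 also: 0% = plate neutral controls and 100% = maraviroc near 300 nM; one replicate is shown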
Yeast UUG start: alters start codon recognition fidelity in yeast | S. cerevisiae UUG-firefly luciferase reporter, luminescence/redox ratio | activity score, % at 18.7 µM | actives 0.13% (n = 350,000);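 active = replicate mean at a twofold rise or more, about +100% in these data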;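 also: firefly luciferase made from a UUG start codon reports start codon fidelity; reporter light over untreated wells divided by growth signal over untreated wells; some hits fall short of that in this replicate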
* marks the source's active call; other numbers are inactive results; [ ] = another dose, or the depositor's remark. The list is partial; count on the stated rates, not on these rows.

Env fusion inh	Yeast UUG start	compound
7[16.7 µM]	-15	COc1ccc(S(=O)(=O)Nc2cccc3c2O[C@H](CN(C)Cc2ccccc2)[C@H](C)CN([C@H](C)CO)C3=O)cc1
16[16.7 µM]	0	CN1C(=O)c2cc(NC(=O)Cc3ccccc3)ccc2OC[C@H]2O[C@H](CC(=O)NCc3ccc(Cl)cc3)CC[C@@H]21
-2[16.7 µM]	11	C[C@@H]1CCCCO[C@@H](CN(C)S(=O)(=O)c2ccccc2)[C@H](C)CN([C@H](C)CO)C(=O)c2cc(NS(=O)(=O)c3ccc(Cl)cc3)ccc2O1
-8[16.7 µM]	1	C[C@@H]1CN([C@@H](C)CO)C(=O)c2cccc(NC(=O)c3cnccn3)c2O[C@@H]1CN(C)C(=O)Nc1cccc2ccccc12
-5[16.7 µM]	130*	C[C@@H]1CN([C@@H](C)CO)S(=O)(=O)c2ccc(C#CC3CC3)cc2O[C@@H]1CN(C)Cc1cccc(F)c1
-10[16.7 µM]	2	CNC[C@H]1Oc2ncc(-c3ccc(OC)cc3)cc2C(=O)N([C@@H](C)CO)C[C@H]1C
32[16.7 µM]	2	C[C@@H]1CN([C@H](C)CO)C(=O)c2cc(C#CC3CCCCC3)cnc2O[C@H]1CN(C)S(=O)(=O)c1ccccc1
5[16.7 µM]	17	O=C(N[C@@H]1CC[C@H](CCNC(=O)C2CC2)O[C@@H]1CO)c1ccncc1
3[16.7 µM]	-10	O=C(N[C@H]1CC[C@H](CC(=O)N2CCCCC2)O[C@H]1CO)c1ccccn1
0[16.7 µM]	-13	COc1ccccc1S(=O)(=O)N[C@H]1CC[C@@H](CCNC(=O)C2CCC2)O[C@@H]1CO

Other compounds follow.
Env fusion inh	Yeast UUG start	compound
-18[16.7 µM]	5	C[C@H](CO)N1C[C@H](C)[C@@H](CN(C)C(=O)CN(C)C)Oc2ncc(C3=CCCC3)cc2C1=O
7[16.7 µM]	5	C[C@@H]1CCCCO[C@H](CN(C)S(=O)(=O)c2ccccc2)[C@H](C)CN([C@@H](C)CO)C(=O)c2cc(NC(=O)Nc3ccc(C(F)(F)F)cc3)ccc2O1
6[16.7 µM]	-25	C[C@@H]1CN([C@H](C)CO)C(=O)c2cc(Br)cnc2O[C@H]1CN(C)Cc1ccccn1
-26[16.7 µM]	-10	Cc1noc(C)c1NC(=O)Nc1ccc2c(c1)CC(=O)N([C@@H](C)CO)C[C@H](C)[C@H](CN(C)Cc1ccccc1)O2
-7[16.7 µM]	26	C[C@@H]1CN([C@@H](C)CO)C(=O)c2cc(NS(=O)(=O)c3ccc(F)cc3)ccc2O[C@@H](C)CCCCO[C@@H]1CN(C)CC1CCCCC1
-11[16.7 µM]	8	N#C[C@H]1[C@@H](c2ccc(-c3ccc(F)cc3)cc2)[C@@H](CO)N1C(=O)Cc1ccccc1
5[16.7 µM]	3	CNC[C@@H]1Oc2c(NC(=O)c3ccncc3)cccc2C(=O)N([C@@H](C)CO)C[C@@H]1C
-2[16.7 µM]	6	COc1ccc(NC(=O)Nc2ccc3c(c2)CC(=O)N([C@@H](C)CO)C[C@H](C)[C@H](CN(C)Cc2ccc(C(=O)O)cc2)O3)cc1
2[16.7 µM]	-1	COc1ccc(NC(=O)N(C)C[C@H]2Oc3ccc(NC(=O)CCC(F)(F)F)cc3CC(=O)N([C@H](C)CO)C[C@@H]2C)cc1
-4[16.7 µM]	-10	C[C@H](CO)N1C[C@H](C)[C@@H](CN(C)C(=O)c2cccnc2)Oc2ncc(-c3ccc(C(=O)N(C)C)cc3)cc2C1=O

Following part.
Env fusion inh	Yeast UUG start	compound
4[16.7 µM]	-4	C[C@H]1CN([C@@H](C)CO)C(=O)c2cc(NC(=O)Cc3cn(C)c4ccccc34)ccc2O[C@@H]1CN(C)S(=O)(=O)c1ccc(Cl)cc1
-10[16.7 µM]	-17	C[C@@H]1CCCCO[C@@H](CN(C)CC2CCCCC2)[C@@H](C)CN([C@H](C)CO)C(=O)c2cc(NS(C)(=O)=O)ccc2O1
24[16.7 µM]	32	C[C@H]1CN([C@@H](C)CO)S(=O)(=O)c2ccc(C#CCC3CCCC3)cc2O[C@H]1CN(C)C(=O)CN(C)C
23[16.7 µM]	-9	C[C@H]1CN([C@@H](C)CO)C(=O)c2cccc(NC(=O)c3ccc(-c4nccs4)cc3)c2O[C@@H]1CN(C)Cc1ccccc1
11[16.7 µM]	11	COc1ccc(S(=O)(=O)N(C)C[C@H]2OCCCC[C@H](C)Oc3ccc(NS(=O)(=O)c4ccccc4)cc3C(=O)N([C@@H](C)CO)C[C@H]2C)cc1
27[16.7 µM]	14	CNC(=O)C[C@H]1CC[C@@H]2[C@@H](COc3ccc(NC(=O)Nc4ccccc4OC)cc3C(=O)N2C)O1
0[16.7 µM]	14	C[C@@H]1CN([C@@H](C)CO)C(=O)c2cc(NS(C)(=O)=O)ccc2O[C@@H](C)CCCCO[C@H]1CN(C)C(=O)c1ccncc1
-18[16.7 µM]	-13	C[C@@H]1CN([C@H](C)CO)C(=O)c2cc(C#CCN(C)C)cnc2O[C@@H]1CN(C)C(=O)c1cccnc1
32[16.7 µM]	16	C[C@@H]1CN([C@@H](C)CO)C(=O)c2cccc(NC(=O)Nc3ccccc3)c2O[C@H]1CN(C)S(=O)(=O)c1cn(C)cn1
11[16.7 µM]	1	Cc1noc(C)c1NC(=O)Nc1ccc2c(c1)C(=O)N([C@@H](C)CO)C[C@H](C)[C@H](CN(C)C(=O)Nc1ccc3c(c1)OCO3)OCCCC[C@H](C)O2

An excerpt of these results, with values under each structure.
Below each SMILES – Env fusion inh	Yeast UUG start
> COc1ccc(S(=O)(=O)N(C)C[C@H]2OCCCC[C@H](C)Oc3ccc(NS(=O)(=O)c4ccccc4)cc3C(=O)N([C@@H](C)CO)C[C@H]2C)cc1
 : 11[16.7 µM]	11
> CNC(=O)C[C@H]1CC[C@@H]2[C@@H](COc3ccc(NC(=O)Nc4ccccc4OC)cc3C(=O)N2C)O1
 : 27[16.7 µM]	14
> C[C@@H]1CN([C@@H](C)CO)C(=O)c2cc(NS(C)(=O)=O)ccc2O[C@@H](C)CCCCO[C@H]1CN(C)C(=O)c1ccncc1
 : 0[16.7 µM]	14

Next section:
Env fusion inh	Yeast UUG start	compound
13[16.7 µM]	-10	Cc1noc(C)c1S(=O)(=O)N(C)C[C@H]1OCCCC[C@@H](C)Oc2ccc(NC(=O)Nc3ccc4c(c3)OCO4)cc2C(=O)N([C@@H](C)CO)C[C@@H]1C
-29[16.7 µM]	14	C[C@@H]1CCCCO[C@H](CN(C)C(=O)Cc2ccccc2)[C@@H](C)CN([C@@H](C)CO)C(=O)c2cc(N(C)C)ccc2O1
-28[16.7 µM]	9	C[C@@H]1CCCCO[C@H](CN(C)Cc2ccccc2)[C@@H](C)CN([C@H](C)CO)C(=O)c2cc(NS(=O)(=O)c3cccs3)ccc2O1
65*[16.7 µM]	-13	CCc1cnc(N2[C@H](C#N)[C@H](c3ccc(C#Cc4ccccc4F)cc3)[C@H]2CO)s1
9[16.7 µM]	-2	O=C(Cc1ccncc1)Nc1ccc2c(c1)[C@@H]1C[C@H](CC(=O)N3CCCCC3)O[C@H](CO)[C@@H]1O2
0[16.7 µM]	14	C[C@@H]1CN([C@@H](C)CO)C(=O)c2cc(C#CC3(O)CCCC3)cnc2O[C@@H]1CN(C)CC1CC1
2[16.7 µM]	-5	CN1C(=O)c2cc(NS(=O)(=O)c3ccccc3Cl)ccc2OC[C@H]2O[C@H](CC(=O)O)CC[C@H]21
16[16.7 µM]	-10	CC(C)CC#Cc1ccc2c(c1)O[C@@H](CN(C)Cc1ccncc1)[C@@H](C)CN([C@@H](C)CO)S2(=O)=O
0[16.7 µM]	-5	C[C@@H]1CCCCO[C@H](CN(C)C(=O)CCCN(C)C)[C@@H](C)CN([C@H](C)CO)C(=O)c2cc(N(C)C)ccc2O1
14[16.7 µM]	-12	O=C(C[C@H]1CC[C@H](NS(=O)(=O)c2ccccc2)[C@@H](CO)O1)NCCN1CCCCC1

(cont.)
Env fusion inh	Yeast UUG start	compound
-2[16.7 µM]	-5	COCC#Cc1ccc2c(c1)O[C@@H](CN(C)S(=O)(=O)c1cccc(F)c1)[C@@H](C)CN([C@@H](C)CO)S2(=O)=O
4[16.7 µM]	2	COc1cccc(C#Cc2cnc3c(c2)C(=O)N([C@@H](C)CO)C[C@H](C)[C@H](CN(C)C)O3)c1
-8[16.7 µM]	-1	C[C@H](CO)N1C[C@H](C)[C@@H](CN(C)S(=O)(=O)c2ccccc2)Oc2ccc(NC(=O)Nc3cccc4ccccc34)cc2CC1=O
20[16.7 µM]	-12	C[C@H]1CN([C@@H](C)CO)S(=O)(=O)c2ccc(C3=CCCC3)cc2O[C@@H]1CN(C)C(=O)C1CCC1
-5[16.7 µM]	-6	CC(C)NC(=O)N(C)C[C@H]1Oc2ccc(NS(C)(=O)=O)cc2C(=O)N([C@@H](C)CO)C[C@@H]1C
-32[16.7 µM]	17	C[C@@H]1CN([C@H](C)CO)S(=O)(=O)c2ccc(C#CCN(C)C)cc2O[C@H]1CN(C)C(=O)Nc1ccccc1F
-1[16.7 µM]	4	CN1C(=O)c2cc(NC(=O)C3CCOCC3)ccc2OC[C@@H]2O[C@H](CC(=O)NC3CCCC3)CC[C@H]21
-12[16.7 µM]	-1	C[C@H](O)C#Cc1ccc2c(c1)O[C@H](CN(C)CC1CCCCC1)[C@H](C)CN([C@H](C)CO)S2(=O)=O
-12[16.7 µM]	-4	C[C@@H]1CCCCO[C@H](CN(C)S(=O)(=O)c2ccc(F)cc2)[C@@H](C)CN([C@H](C)CO)C(=O)c2cc(NC(=O)CCCCCC(=O)Nc3ccccc3N)ccc2O1
2[16.7 µM]	4	CO[C@@H]1CN(C)C(=O)c2ccc(NC(=O)C3CCC3)cc2OC[C@H](C)N(C(=O)NC(C)C)C[C@H]1C

Carrying on:
Env fusion inh	Yeast UUG start	compound
-7[16.7 µM]	6	CNC[C@@H]1Oc2c(NC(=O)NC3CCCCC3)cccc2C(=O)N([C@H](C)CO)C[C@@H]1C
23[16.7 µM]	5	COCC#Cc1ccc2c(c1)O[C@@H](CN(C)Cc1cncnc1)[C@H](C)CN([C@H](C)CO)S2(=O)=O
5[16.7 µM]	-1	C[C@H]1CN([C@@H](C)CO)C(=O)Cc2cc(NS(C)(=O)=O)ccc2O[C@H]1CN(C)C(=O)Nc1ccc2c(c1)OCO2
5[16.7 µM]	-1	C[C@H](CO)N1C[C@H](C)[C@H](CN(C)S(=O)(=O)c2ccccc2)Oc2c(NC(=O)C3CC3)cccc2C1=O
-4[16.7 µM]	-20	C[C@@H]1CN([C@@H](C)CO)C(=O)Cc2cc(NC(=O)CCCN(C)C)ccc2O[C@@H]1CN(C)CC1CCCCC1
-12[16.7 µM]	-4	C[C@@H]1CN([C@@H](C)CO)C(=O)Cc2cc(NC(=O)c3ccncc3)ccc2O[C@@H]1CN(C)Cc1ccccc1
-5[16.7 µM]	10	COc1ccc(NC(=O)Nc2cccc3c2O[C@H](CN(C)Cc2ccc(C(=O)Nc4ccccc4N)cc2)[C@H](C)CN([C@H](C)CO)C3=O)cc1
-3[16.7 µM]	10	CC(C)NC(=O)N(C)C[C@H]1Oc2c(NC(=O)C3CC3)cccc2C(=O)N([C@@H](C)CO)C[C@H]1C
-10[16.7 µM]	1	COc1ccc(CN(C)C[C@H]2OCCCC[C@@H](C)Oc3ccc(NC(=O)CCCN(C)C)cc3C(=O)N([C@@H](C)CO)C[C@@H]2C)cc1
8[16.7 µM]	-3	C[C@H]1CN([C@@H](C)CO)C(=O)c2cc(-c3ccc(F)cc3)cnc2O[C@@H]1CN(C)C(=O)Nc1ccc(F)cc1

Exported with values under each structure: entries from further up.
Each structure is followed by: Env fusion inh, Yeast UUG start
C[C@H](CO)N1C[C@H](C)[C@H](CN(C)S(=O)(=O)c2ccccc2)Oc2c(NC(=O)C3CC3)cccc2C1=O
  5[16.7 µM], -1
C[C@@H]1CN([C@@H](C)CO)C(=O)Cc2cc(NC(=O)CCCN(C)C)ccc2O[C@@H]1CN(C)CC1CCCCC1
  -4[16.7 µM], -20
C[C@@H]1CN([C@@H](C)CO)C(=O)Cc2cc(NC(=O)c3ccncc3)ccc2O[C@@H]1CN(C)Cc1ccccc1
  -12[16.7 µM], -4

Continued:
Env fusion inh	Yeast UUG start	compound
3[16.7 µM]	11	Cc1noc(C)c1S(=O)(=O)Nc1ccc2c(c1)C(=O)N([C@@H](C)CO)C[C@H](C)[C@H](CN(C)CC1CC1)OCCCC[C@@H](C)O2
-3[16.7 µM]	3	C[C@@H]1CN([C@H](C)CO)C(=O)c2cc(C3=CCCCC3)cnc2O[C@H]1CN(C)C(=O)c1ccccc1
4[16.7 µM]	-16	COc1ccc(NC(=O)N[C@@H]2C=C[C@H](CC(=O)NCc3ccccn3)O[C@H]2CO)cc1
12[16.7 µM]	3	Cc1noc(C)c1NC(=O)N(C)C[C@H]1OCCCC[C@@H](C)Oc2ccc(NC(=O)Nc3ccc(F)cc3)cc2C(=O)N([C@H](C)CO)C[C@@H]1C
-9[16.7 µM]	-4	O=C(C[C@H]1C[C@@H]2c3cc(NC(=O)C4CCOCC4)ccc3O[C@@H]2[C@H](CO)O1)NCc1ccc(Cl)cc1
34[16.7 µM]	-15	C[C@@H]1CN([C@@H](C)CO)C(=O)c2cc(NC(=O)Nc3ccc(F)cc3)ccc2O[C@@H]1CN(C)C(=O)Nc1ccc(C(F)(F)F)cc1
24[16.7 µM]	0	C[C@@H]1CN([C@H](C)CO)S(=O)(=O)c2ccc(/C=C/c3ccccc3)cc2O[C@H]1CN(C)C(=O)C1CC1
-3[16.7 µM]	19	COc1ccc(CN(C)C[C@H]2OCCCC[C@@H](C)Oc3ccc(NC(=O)Nc4ccc(OC)cc4)cc3C(=O)N([C@H](C)CO)C[C@H]2C)cc1
